# Bioassay records (PubChem)
# BJeLR lethal – kills HRASV12-expressing BJeLR cells | BJeLR (HRASV12) viability, CellTiter-Glo ATP luminescence, 48 h; reference of the scale not given here | inhibition, % (no concentration beside the values) | 300,000 compounds, 0.17% hits;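 active = replicate mean above 50%; inconclusive = above 50% but judged a plate artefact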;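 also: 50 nL library stock added to about 25 µL; numbers are from one replicate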
# Sa ugtP lethal – kills S. aureus RN4220 lacking UgtP; S. aureus RN4220 ugtP deletion, OD600 growth, 16 h; some inactives read as strong as hits; growth inhibition, % (no concentration beside the values); 330,000 compounds, 0.54% hits;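 active = z-score under -3 and OD600 up to 0.15 on both plates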;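 also: plate controls were untreated wells for no effect and antibiotic for full effect; wells of about 80 µL received 100 nL stock; the first replicate is given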
# Mtb hypoxia inh – inhibitors of hypoxia-regulated fluorescent reporter in Mycobacterium tuberculosis | M. tuberculosis hypoxia-regulated fluorescent reporter, fluorescence | fluorescence inhibition, % (test concentration not listed) | 300,000 compounds, 0.1% hits;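 active = 35 to 45% if threefold the growth effect, above 45% if 1.5-fold the growth effect; inactive = the rest, general growth blockers included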;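 also: wells of about 50 µL received 100 nL stock; 0% = vehicle wells and 100% = reference inhibitor wells; whole bacteria with a GFP reporter of the hypoxia response; strong numbers were not always called active; many hits fall short of the cut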
# Sa RN4220 lethal – S. aureus RN4220 growth inhibition; OD600, 16 h; inhibition, % (concentration not given with the values); 330,000 compounds, 0.33% hits;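 active = z-score of -3 or lower and OD600 up to 0.18 on both plates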;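 also: plate controls were untreated cells for no effect and reference antibiotic for full effect; stock transfer was 100 nL into about 80 µL; one replicate is shown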
# Autofluor counter – flagged as autofluorescent in microsphere protease counterscreen; 360,000 compounds, 3.1% hits; fluorescence intensity (no concentration beside the values); compound autofluorescence counterscreen, microsphere flow cytometry; hits give high values;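 active = at least 3 SD above the mean of all compounds, about 16000 in these data; inconclusive = too few beads counted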;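 also: 100 nL of 1 mM stock went into each well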
# PrP UTR inh – suppresses PrP 5' UTR mRNA reporter expression; cell-based PrP 5' UTR mRNA reporter, plate reader; inhibition, % (concentration not given with the values); 340,000 compounds, 0.35% hits;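 active = every replicate at 50% or more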;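 also: 0 = median of the neutral control wells; tested in H4 reporter cells; numbers are from one replicate; inactives centre near -14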
# Mtb hypoxia inh growth – recorded beside Mtb hypoxia inh, whose call it bears; growth inhibition, %; measured here: M. tuberculosis growth (absorbance);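 0% = vehicle and 100% = reference antibiotic; read after six days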
# The depositor's hits bear a star; ? = inconclusive; / = no result given; & = joins results of further samples.
# Each structure is followed by: BJeLR lethal	Sa ugtP lethal	Mtb hypoxia inh	Mtb hypoxia inh growth	Sa RN4220 lethal	Autofluor counter	PrP UTR inh
O=C(CCS(=O)(=O)c1ccc(Br)cc1)N1CCC2(CC1)OCCO2
  /	12	/	/	5.4	2107	-5
COc1ccccc1NC(=O)c1cc(-c2ccc(C)o2)nc2ccccc12
  -2	8	9	8	7.1	3832	-19
CCC(C)(C)NC(=O)C(C(C)C)N(CC1CCCO1)C(=O)CNS(=O)(=O)c1ccc(F)cc1 (stereo unspecified)
  0	0	18	2	5.0	4063	-11
FC(F)(F)c1cccc(OCc2noc(-c3ccsc3)n2)c1
  3	20	5	7	7.3	3360	-7
COC(=O)C1CC2CCC(O)CC2N1Cc1ccc(Cl)cc1 (stereo unspecified)
  /	1&-4	5&-1	12&0	2.0&-3.5	/	/
CS(=O)(=O)Nc1ccc(Br)cc1C(=O)c1ccccc1
  -4	10	4	0	9.6	5478	-20
O=C(NCCN1CCOCC1)C(=O)NCC1OCCN1S(=O)(=O)c1cc(F)ccc1F (stereo unspecified)
  -1	0	-1	-2	0.5	4991	-23
CC(=O)c1cccc(NC(=O)c2ccc(C(=O)Nc3cccc(C(C)=O)c3)nc2)c1
  -4	2	12	1	4.1	4490	5
CCOc1ccc(S(=O)(=O)N2CCN(C(=O)C3CC3C)CC2)cc1 (stereo unspecified)
  /	6	2	-4	0.8	4314	-12
Cc1occc1-c1nnc(SCC(=O)N2CCCc3ccccc32)n1Cc1ccco1
  8	/	/	/	/	2894	-14

# Reformatted as labelled records: three of the compounds above.
COC(=O)C1CC2CCC(O)CC2N1Cc1ccc(Cl)cc1 (stereo unspecified)
  BJeLR lethal = /	Sa ugtP lethal = 1&-4	Mtb hypoxia inh = 5&-1	Mtb hypoxia inh growth = 12&0	Sa RN4220 lethal = 2.0&-3.5	Autofluor counter = /	PrP UTR inh = /

CS(=O)(=O)Nc1ccc(Br)cc1C(=O)c1ccccc1
  BJeLR lethal = -4	Sa ugtP lethal = 10	Mtb hypoxia inh = 4	Mtb hypoxia inh growth = 0	Sa RN4220 lethal = 9.6	Autofluor counter = 5478	PrP UTR inh = -20

O=C(NCCN1CCOCC1)C(=O)NCC1OCCN1S(=O)(=O)c1cc(F)ccc1F (stereo unspecified)
  BJeLR lethal = -1	Sa ugtP lethal = 0	Mtb hypoxia inh = -1	Mtb hypoxia inh growth = -2	Sa RN4220 lethal = 0.5	Autofluor counter = 4991	PrP UTR inh = -23

# The listing continues.
# Each structure is followed by: BJeLR lethal	Sa ugtP lethal	Mtb hypoxia inh	Mtb hypoxia inh growth	Sa RN4220 lethal	Autofluor counter	PrP UTR inh
COc1ccc(OC)c(-n2c(-c3ccc(O)cc3O)n[nH]c2=S)c1
  -8	9	-1	-14	0.8	4913	5
O=C(Nc1ccc(F)cc1)N1CCOCC1
  0	-4	14	9	2.5	19165*	-8
O=C(CNC(=O)c1cccc([N+](=O)[O-])c1)NC1CCCc2ccccc21 (stereo unspecified)
  /	2	-4	5	-5.6	9077	-5
CCOc1ccccc1C(=O)NCC(=O)Nc1ccc2c(c1)OCO2
  /	4	7	4	3.4	4112	-21
COc1ccccc1N1CCN(C(=O)c2ccccc2Oc2ccccc2)CC1
  4	3	-3	11	19	3167	-22
CCN(CC)S(=O)(=O)c1ccc(NC(=O)c2cccs2)cc1
  1	8	-6	1	7.4	4066	-21
Cc1ccc(S(=O)(=O)NC(CC(C)C)C(=O)N2CCOCCOCCOCC2)cc1 (stereo unspecified)
  2	5	7	-5	4.6	3282	3
O=C(Nc1ccc(F)cc1F)c1cccc(C(=O)Nc2ccc(F)cc2F)n1
  -7	-4	12	-8	2.7	5220	-19
COC(=O)C(C)(C(=O)OC)c1ccc(C(F)(F)F)cc1[N+](=O)[O-]
  2	-1	2	-1	5.7	3254	-1
COc1cccc(NC(=O)CC(=O)c2ccccc2)c1
  2	2	3	-4	3.8	3117	-37

# The results go on:
# Each structure is followed by: BJeLR lethal	Sa ugtP lethal	Mtb hypoxia inh	Mtb hypoxia inh growth	Sa RN4220 lethal	Autofluor counter	PrP UTR inh
CC(CCc1ccccc1)NCc1cccc2ccccc12 (stereo unspecified)
  3	-5	4	8	-0.4	3333	-2
Cn1cc(S(=O)(=O)N2CCN(C(=O)c3ccco3)CC2)c(=O)n(C)c1=O
  -1	-3	3	14	-5.0	6030	-14
CC(=O)c1c(C)[nH]c(C(=O)OCc2c(F)cccc2Cl)c1C
  3	-14	2	3	5.4	3780	-15
CC(C)CC(NC(=O)C1CCCCC1)C(=O)N1CCC2(CC1)OCCO2 (stereo unspecified)
  -2	8	9	10	0.8	5894	-20
Cc1cc(OC(C)C(=O)NCc2ccncc2)c2c(C)c(C)c(=O)oc2c1 (stereo unspecified)
  2	12	4	5	3.2	4402	-11
Cc1csc(NC(=O)C2CCCN(S(=O)(=O)c3ccc4c(c3)oc(=O)n4C)C2)n1 (stereo unspecified)
  -1	2	0	8	-0.5	5753	6
CC(C)OC(=O)c1sc2nc(-c3ccccc3)ccc2c1N
  3	-3	4	8	0.1	9793	54*
COc1cc(C(=O)Nc2nc(-c3cc(C)ccc3C)c(C)s2)ccc1OCC(=O)Nc1ccc(F)cc1
  2	-19	11	5	-3.4	3031	-7
CSc1nsc(SC)c1C(=O)O
  -1	10	7	7	5.4	4804	-6
COc1ccccc1NC(=O)CN(Cc1ccco1)C(=O)c1ccc(Cl)nc1
  1	3	18	8	2.7	3446	-34

# Other structures follow:
# Each structure is followed by: BJeLR lethal	Sa ugtP lethal	Mtb hypoxia inh	Mtb hypoxia inh growth	Sa RN4220 lethal	Autofluor counter	PrP UTR inh
Cc1cc(C)nc(CC(N)=O)n1
  4	0	10	6	8.2	2867	-7
Cc1ccc(O)c(C(CC(=O)NCc2cccnc2)c2ccccc2)c1 (stereo unspecified)
  2	0	-9	6	4.2	4512	-18
C#CCSc1nc2ccccc2n1C(=O)c1ccc(S(=O)(=O)N2CCCCC2)cc1
  /	5	11	1	7.6	11362	-6
Cc1ccc(CSc2nnc(SCC(=O)NN=Cc3ccc(C(=O)O)cc3)s2)cc1
  /	12	-17	-2	3.5	/	/
COc1cc2c(C#N)c(N3CCCCC3)nc(N)c2c(N)n1
  -9	-7	-6	7	7.9	3076	7
Cc1ccc(N2CCN(N=Cc3ccccc3[N+](=O)[O-])CC2)cc1
  /	6	-6	6	10	/	/
Cc1ccc(C)c(N2CCN(C(=O)Cn3ncc4c([nH]c5ccc(C)cc54)c3=O)CC2)c1
  3	5	4	11	1.0	5344	-18
COCc1cc(C)nc(OCC(=O)N/N=C/c2ccc(C)cc2)c1C#N
  -6	/	/	/	/	6456	-24
Cc1cccc(C(=O)Nc2nnc(S(=O)(=O)N3CCCCCC3)s2)c1
  6	20	0	1	38	6143	-22
COC(=O)c1ccc(CNC(=O)CSc2nc3ccccc3[nH]2)cc1
  3	-1	-1	16	-3.1	6128	-8

# Entries of single compounds, looked up by structure:
# Cc1ccc(N2CCN(N=Cc3ccccc3[N+](=O)[O-])CC2)cc1 as listed: BJeLR lethal = /; Sa ugtP lethal = 6; Mtb hypoxia inh = -6; Mtb hypoxia inh growth = 6; Sa RN4220 lethal = 10; Autofluor counter = /; PrP UTR inh = /
# Cc1cc(C)nc(CC(N)=O)n1 as listed: BJeLR lethal = 4; Sa ugtP lethal = 0; Mtb hypoxia inh = 10; Mtb hypoxia inh growth = 6; Sa RN4220 lethal = 8.2; Autofluor counter = 2867; PrP UTR inh = -7

# Next compounds follow:
# Each structure is followed by: BJeLR lethal	Sa ugtP lethal	Mtb hypoxia inh	Mtb hypoxia inh growth	Sa RN4220 lethal	Autofluor counter	PrP UTR inh
CCC(=O)Oc1ccc(C(=O)Nc2c[nH]c(=O)[nH]c2=O)cc1
  2	-2	19	10	-0.5	2151	48
O=C(COC(=O)c1cc(NS(=O)(=O)c2cccs2)ccc1O)Nc1cc(Cl)ccc1Cl
  8	11	6	1	1.6	5078	-31
Cc1cc(C)n(-c2nc(C)nc3sc4c(c23)CCC(C)C4)n1 (stereo unspecified)
  3	1	6	3	6.9	9704	-21
O=C(/C=C/c1ccccc1)NC(=S)NNC(=O)Cc1cccs1
  -12	-11	/	/	28	4602	-9
Cc1ccc(CNC(=O)CCC(=O)c2cccs2)cc1
  3	-6	19	8	1.8	22864*	-33
Cc1noc(C)c1C(=O)OCC(=O)NC(c1ccccc1)c1ccccc1
  4	-12	-4	5	-8.8	10150	-20
CCc1ccc(S(=O)(=O)Nc2ccc(O)c3ccccc23)cc1
  -4	/	/	/	/	3517	-15
O=C(Nc1cccc2[nH]ncc12)NS(=O)(=O)c1ccccc1
  1	1	5	4	2.7	3561	-35
CC(C)N(CCO)Cc1nc(C(c2ccccc2)c2ccccc2)no1
  -4	-1	-7	-12	2.1	3105	-17
CCOC(=O)c1nc(C)sc1-c1ccnn1S(=O)(=O)c1ccc(Cl)cc1Cl
  2	3	-12	2	8.2	5343	-16

# Other records
# Each structure is followed by: BJeLR lethal	Sa ugtP lethal	Mtb hypoxia inh	Mtb hypoxia inh growth	Sa RN4220 lethal	Autofluor counter	PrP UTR inh
CC(=O)C1(O)C(C)CC2C3CC=C4CC(O)CCC4(C)C3CCC21C (stereo unspecified)
  /	2	11	8	2.2	3894	-22
COc1ccc2c(c1)CCNC2Cc1ccc(OC)c(O)c1 (stereo unspecified)
  -8	8	6	-2	6.6	/	/
COc1cccc(C2C(C(C)=O)=C(C)Nc3ncnn32)c1 (stereo unspecified)
  -2	13	16	-3	3.3	3951	-20
CCOC(=O)C(=NCCCN(C)C)NNc1cc(C(F)(F)F)ccc1Cl
  2	-1	12	4	2.5	4981	-17
COc1ccc(NC(=O)c2c(C)nn(Cc3ccccc3)c2C)cc1S(=O)(=O)N(C)C
  -6	-1	17	3	-1.5	4274	-4
CCCc1ccc(C(=O)N2CCN(c3ccccc3OCC)CC2)cc1
  -7	2	5	5	14	25022*	-11
CCc1c(C)nc(N)n2c(SCC(=O)NC3CCCCC3)nnc12
  -2	5	-10	1	1.0	5241	-7
CCS(=O)(=O)N1Cc2ccccc2CC1C(=O)Nc1nnc(C2CC2)s1 (stereo unspecified)
  -2	/	/	/	/	3124	34
Nc1nc(-c2ccc3c(c2)CCC(=O)N3)cs1
  1	-11	-1	3	2.4	4629	-16
Cc1ccc(-c2nn3c(C)nnc3s2)cc1NC(=O)c1ccc(-c2cccc(Cl)c2)o1
  -1	83	2	24	12	4194	-8

# Later entries
# Each structure is followed by: BJeLR lethal	Sa ugtP lethal	Mtb hypoxia inh	Mtb hypoxia inh growth	Sa RN4220 lethal	Autofluor counter	PrP UTR inh
N#CC1=C(N)Oc2cc(N)ccc2C1c1cccc(Br)c1 (stereo unspecified)
  56*	-9	-9	4	0.3	3864	38
Cc1cc(C(=O)N2CCN(C/C=C/c3ccccc3)CC2)cs1
  -5	9	7	7	3.5	11578	-18
CCOC(=O)c1ccc(S(=O)(=O)Nc2nc3cc(S(=O)(=O)NC4=NCCCCC4)ccc3s2)cc1
  -12	15	5	8	6.1	4303	-9
CCc1ccc2[nH]c3nc(SCc4nnc(-c5ccc(C)cc5)o4)nnc3c2c1
  7	-5	/	/	0.9	4413	-7
O=C(NCCc1ccc(Cl)cc1)C1CCC(CNc2c(N3CCCCC3)c(=O)c2=O)CC1 (stereo unspecified)
  -7	5	7	41	4.8	6311	-24
CN(NS(=O)(=O)c1ccc(Cl)cc1)c1ncc(C(F)(F)F)cc1Cl
  -10	-1	11	0	12	2291	-9
Cc1ccc(NC(=O)Cn2sc3nc(C)cc(C)c3c2=O)c(Cl)c1
  -7	-2	6	-4	-1.8	3188	-27
CCOc1cccc(CN(CC)CC2CCCN(CCc3cccc(OC)c3)C2)c1O (stereo unspecified)
  -4	10	10	3	-2.3	3855	-31
CCN(CC)S(=O)(=O)c1ccc(NN=C(C)c2ccc3c(c2)OCO3)c([N+](=O)[O-])c1
  /	1	4	1	8.8	/	/
COc1ccc(S(=O)(=O)Nc2ccc(F)cc2)c(C)c1C
  7	-4	12	7	4.8	?	-10
CCOC(=O)c1ccc(NC(=O)c2sc3nc4n(c(=O)c3c2C)CCC4)cc1
  10	12	-9	-2	0.8	4319	-14
CC[C@H](C)[C@H](NC(=O)c1ccc(Cl)cc1)C(=O)OCC(=O)c1ccc2c(c1)NC(=O)CO2
  4	-5	/	/	-4.2	4006	-11
Cc1ccc(N(CC(=O)NC2CC3CCC2C3)S(C)(=O)=O)cc1C (stereo unspecified)
  0	11	4	-2	2.4	3341	2
